Assay outcomes (PubChem BioAssay)
RN4220 kill – S. aureus RN4220 growth inhibition | 330,000 tested, 0.33% active | inhibition, % (test concentration not listed) | OD600, 16 h;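 active = z-score of -3 or lower and OD600 up to 0.18 on both plates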;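 also: plate controls were untreated cells for no effect and reference antibiotic for full effect; stock transfer was 100 nL into about 80 µL; one replicate is shown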
Mtb hypoxia inh – inhibitors of hypoxia-regulated fluorescent reporter in Mycobacterium tuberculosis; M. tuberculosis hypoxia-regulated fluorescent reporter, fluorescence; fluorescence inhibition, % (no concentration beside the values); 300,000 tested, 0.1% active; AID 1159583;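 active = 35 to 45% if threefold the growth effect, above 45% if 1.5-fold the growth effect; inactive = the rest, general growth blockers included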;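 also: wells of about 50 µL received 100 nL stock; 0% = vehicle wells and 100% = reference inhibitor wells; whole bacteria with a GFP reporter of the hypoxia response; strong numbers were not always called active; many hits fall short of the cut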
Bead autofluor – counter-screen for toxin protease inhibitors: compound fluorescence. compound autofluorescence counterscreen, microsphere flow cytometry; hits give high values. fluorescence intensity (no concentration beside the values). 360,000 tested, 3.1% active. AID 624483;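 active = at least 3 SD above the mean of all compounds, about 16000 in these data; inconclusive = too few beads counted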;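 also: 100 nL of 1 mM stock went into each well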
BJeLR viability – kills HRASV12-expressing BJeLR cells. BJeLR (HRASV12) viability, CellTiter-Glo ATP luminescence, 48 h; reference of the scale not given here. inhibition, % (test concentration not listed). 300,000 tested, 0.17% active. AID 1554;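 active = replicate mean above 50%; inconclusive = above 50% but judged a plate artefact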;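 also: 50 nL library stock added to about 25 µL; numbers are from one replicate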
PrP UTR inh – suppresses PrP 5' UTR mRNA reporter expression; cell-based PrP 5' UTR mRNA reporter, plate reader; inhibition, % (no concentration beside the values); 340,000 tested, 0.35% active; AID 488862;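 active = every replicate at 50% or more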;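 also: 0 = median of the neutral control wells; tested in H4 reporter cells; numbers are from one replicate; inactives centre near -14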
ugtP null kill – kills S. aureus RN4220 lacking UgtP | S. aureus RN4220 ugtP deletion, OD600 growth, 16 h; some inactives read as strong as hits | growth inhibition, % (concentration not given with the values) | 330,000 tested, 0.54% active | AID 1259309;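 active = z-score under -3 and OD600 up to 0.15 on both plates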;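 also: plate controls were untreated wells for no effect and antibiotic for full effect; wells of about 80 µL received 100 nL stock; the first replicate is given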
Mtb hypoxia inh growth – second read-out of Mtb hypoxia inh, no call of its own (marks repeat the call); growth inhibition, %; measured here: M. tuberculosis growth (absorbance);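 0% = vehicle and 100% = reference antibiotic; read after six days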
* marks the source's active call; other numbers are inactive results; u = inconclusive; x = no result given.

SMILES | RN4220 kill | Mtb hypoxia inh | Mtb hypoxia inh growth | Bead autofluor | BJeLR viability | PrP UTR inh | ugtP null kill
Cc1ccc(CNC(=O)C2CC=CCC2C(=O)O)cc1 (configuration not stated) | 4.8 | 15 | 12 | 3186 | 0 | -12 | 2
Cc1ccc(Cl)cc1N1CCN(C(c2ccc(C#N)cc2)c2nnnn2C2CCCC2)CC1 (configuration not stated) | -1.7 | 0 | 2 | 8213 | x | -15 | -3
CN(C(=O)COC(=O)/C=C/c1ccc(S(=O)(=O)N2CCc3ccccc32)cc1)C1CCS(=O)(=O)C1 (configuration not stated) | 2.9 | 5 | 4 | 3660 | 5 | -15 | 0
CC(Sc1nnnn1C1CC1)C(=O)Nc1cccc(S(=O)(=O)N2CCOCC2)c1 (configuration not stated) | 0.3 | 3 | -4 | u | x | -1 | -1
O=c1oc(Nc2cccc(F)c2)nc2ccccc12 | 3.1 | 12 | 14 | 2873 | 11 | -11 | -1
COC(=O)[C@@H]1Cc2c([nH]c3ccccc23)C2CCC(=O)N21 (some centres not stated) | 0.6 | 11 | -1 | 3031 | -4 | -8 | -1
COc1ccc(Cl)cc1Nc1nc(N)nc(C(F)(F)F)n1 | 7.8 | -4 | 4 | 12088 | -3 | -1 | -2
Cc1ccc(NC(=O)c2ccc(OCC3CCCO3)cc2)c(C)c1 (configuration not stated) | 6.2 | 6 | 4 | 2023 | 5 | -24 | 0
CCCCn1c(O)c(C(CC)=NCc2cccnc2)c(=O)[nH]c1=O | 3.1 | 2 | 8 | 22114* | 6 | 0 | -1
CCCCc1c(O)nc(SCC(=O)c2ccccc2)n(-c2ccccc2OC)c1=O | -0.2 | 2 | -5 | 3431 | -2 | -8 | 4
O=C(CCN=C1NS(=O)(=O)c2ccccc21)Nc1ccc(Cl)cc1F | 0.0 | -7 | 0 | 9043 | x | 0 | -2
O=C(Cc1coc2cc3c(cc12)CCC3)OCC(=O)N1CCCC1=O | 7.9 | 14 | 11 | 4598 | 2 | 17 | 7
CS(=O)(=O)c1ccc(C(=O)N2CC(=O)Nc3ccccc32)cc1 | 2.7 | -1 | 5 | 3893 | -12 | 5 | 4
O=C(NC1CCCC1)c1cc2ccccc2o1 | 2.3 | x | x | 6319 | 7 | -19 | -1
CC(C)Cn1c(N)c(C(=O)COC(=O)c2ccc([N+](=O)[O-])o2)c(=O)n(C)c1=O | 4.0 | 14 | 12 | 4455 | 2 | -25 | -6
Cc1ccc(NC(=O)COc2ncnc3cc([N+](=O)[O-])ccc23)cc1S(=O)(=O)N1CCOCC1 | -1.2 | -3 | 7 | 4929 | -10 | -20 | -2
O=C(COC(=O)c1cc(S(=O)(=O)N2CCOCC2)ccc1O)NCC1CCCO1 (configuration not stated) | -12 | 3 | 0 | 3191 | -1 | -15 | -8
C=CCN=C1NC(c2cccc(C(F)(F)F)c2)C(C(=O)OC)=C(C)N1CC (configuration not stated) | 1.7 | 4 | 6 | x | x | x | -2
COc1cccc(CN2CCNC(=O)C2CC(=O)NCc2cn3ccccc3n2)c1OC (configuration not stated) | 9.6 | 12 | -2 | 3528 | 3 | -11 | 6
CCOc1ccc(-c2[nH]nc3c2C(c2cccnc2)C(C#N)=C(N)O3)cc1 (configuration not stated) | 3.1 | -9 | -3 | 2939 | -1 | -21 | 2
C=CCN1C(=O)C(=O)N(CC(=O)NCC(=O)Nc2ccc(F)c(F)c2F)C1=O | 0.8 | 12 | 2 | u | x | -20 | 8
N#Cc1nc(Cc2cccc3ccccc23)oc1NCCCn1ccnc1 | -12 | 5 | 4 | 3030 | 6 | -6 | -6
Cc1cccc(NC(=O)CCN2CC(C)CC(C)C2)c1 (configuration not stated) | 3.6 | 8 | 12 | 3611 | -1 | -17 | 7
CC(=O)c1ccc(N2CCN(C(=O)c3cccc(Oc4ccccc4)c3)CC2)cc1 | -7.1 | 7 | 7 | 4763 | 5 | -12 | 87*
COCCCNC(=O)CCn1c(=O)c2ccccc2n(Cc2cccc([N+](=O)[O-])c2)c1=O | 1.1 | -3 | -3 | 4803 | -4 | -9 | -3

Fetched by compound from above (4):
SMILES | RN4220 kill | Mtb hypoxia inh | Mtb hypoxia inh growth | Bead autofluor | BJeLR viability | PrP UTR inh | ugtP null kill
N#Cc1nc(Cc2cccc3ccccc23)oc1NCCCn1ccnc1 | -12 | 5 | 4 | 3030 | 6 | -6 | -6
C=CCN=C1NC(c2cccc(C(F)(F)F)c2)C(C(=O)OC)=C(C)N1CC (configuration not stated) | 1.7 | 4 | 6 | x | x | x | -2
Cc1ccc(NC(=O)c2ccc(OCC3CCCO3)cc2)c(C)c1 (configuration not stated) | 6.2 | 6 | 4 | 2023 | 5 | -24 | 0
Cc1ccc(Cl)cc1N1CCN(C(c2ccc(C#N)cc2)c2nnnn2C2CCCC2)CC1 (configuration not stated) | -1.7 | 0 | 2 | 8213 | x | -15 | -3

(listing goes on)
SMILES | RN4220 kill | Mtb hypoxia inh | Mtb hypoxia inh growth | Bead autofluor | BJeLR viability | PrP UTR inh | ugtP null kill
O=C(O)c1ccc(N/N=C/c2cn(Cc3ccccc3F)c3ccccc23)cc1 | x | x | x | 4034 | -14 | -52 | x
O=C(NC1CCN(S(=O)(=O)c2ccc(Cl)cc2)CC1)c1cccnc1 | 0.0 | -9 | 5 | 5668 | -10 | -4 | 5
CNC(=O)Cn1nc(C)c(S(=O)(=O)N2CCOCC2)c1C | 5.8 | 8 | 3 | 3586 | x | -20 | 5
CC[C@H](C)/C=C(C)/C=C/C1=CC2=C(Cl)C(=O)[C@](C)(OC(C)=O)C(=O)C2=CO1 | 5.7 | x | x | 3995 | x | -21 | 6
COc1ccc(NC(=O)CSc2nc(-c3ccco3)nc3cc(=O)[nH]n23)cc1Cl | 1.8 | 17 | 5 | 5829 | -11 | -19 | -2
O=C(NCCc1c[nH]c2ccccc12)c1cncc(Br)c1 | -2.1 | -4 | 6 | 4140 | 6 | -19 | 2
CCO[C@@H]1OC(C(=O)O)=C[C@H](c2ccc(C(F)(F)F)cc2)[C@H]1CCCO | x | x | x | 4178 | -11 | -12 | x
CCOc1cc(C(=O)Nc2ccc(F)cc2)cc(Br)c1OC | -0.2 | 4 | 2 | 2444 | 3 | -10 | 32
O=C(O)c1ccc2c(c1)C1C(Cl)C(Sc3ccccc3[N+](=O)[O-])CC1C(c1cccc([N+](=O)[O-])c1)N2 (configuration not stated) | 20 | 3 | 1 | 3956 | x | -21 | -9
Cc1cc(OC(C)C)nc(-c2ccccc2O)n1 | 5.1 | 3 | 4 | 9244 | -9 | -17 | 21
CCCN1C(=O)/C(=C/c2nc3ccccc3c(=O)[nH]2)c2ccccc21 | 0.5 | 6 | 4 | 2395 | 6 | -12 | -24
CCOc1cc(C=NNC(=O)c2cc3c(ccc4ccccc43)o2)ccc1O | 2.6 | -6 | 7 | x | x | x | -8
CCOC(=O)N1CCC(NC(=O)c2cc(C(=O)NCc3ccc(F)cc3)ccc2CO)CC1 | 5.2 | x | x | 2129 | -13 | -23 | 4
CCOc1ccc(S(=O)(=O)NCc2ccc3c(c2)OCO3)cc1 | 1.5 | -14 | -10 | 3334 | -10 | 6 | -3
Cc1onc2c(=O)n(-c3ccccc3)nc(-c3ccccc3)c12 | 8.0 | -9 | 13 | 4426 | -11 | -17 | 4
CCCCn1c(O)c(C=NCCCn2ccnc2)c(=O)[nH]c1=O | 7.1 | 17 | 2 | 2835 | 2 | -9 | 4
CC(=O)Nc1ccc(S(=O)(=O)NCCC(=O)OCc2csc(CC(=O)Nc3ccccc3C)n2)cc1 | 2.0 | 2 | 3 | 7360 | 0 | 0 | -10
Cc1ccc(S(=O)(=O)c2nc(Nc3ccccc3N3CCOCC3)sc2Cl)cc1 | 5.4 | 1 | 7 | 16143* | -10 | -22 | 2
Cc1cccnc1NC(=O)c1ccc(OCC2CCCO2)cc1 (configuration not stated) | 1.2 | 5 | -1 | 9021 | x | -16 | 7
CC(CCc1ccccc1)NC(=O)C1CCC1 (configuration not stated) | 3.2 | 16 | 21 | 4093 | 9 | -13 | 9
O=C(COc1ccccc1C(=O)O)Nc1cccc2ccccc12 | -1.1 | 3 | 3 | 5709 | x | -33 | 1
CCOC(=O)c1c(NC(=O)C2=C(C)NC(=S)NC2c2ccc(F)cc2F)sc(C)c1C (configuration not stated) | -1.3 | 18 | 6 | 2528 | -30 | -52 | -14
Cc1ccc(S(C)=O)cc1-n1c(=O)n(Cc2ccccc2)c(=O)c2[nH]cnc21 (configuration not stated) | 0.7 | 7 | -3 | 3531 | -4 | -10 | 12
O=C(Cn1ccc2cc(S(=O)(=O)N3CCCC3)ccc21)NCc1ccccc1 | 0.6 | 0 | -6 | 5663 | 1 | -26 | -2
COc1ccccc1-n1nnnc1SCc1cc2c(cc1Br)OCO2 | 3.6 | x | x | 3600 | -2 | -16 | -1
Other records.
SMILES | RN4220 kill | Mtb hypoxia inh | Mtb hypoxia inh growth | Bead autofluor | BJeLR viability | PrP UTR inh | ugtP null kill
O=c1c2c([nH]c3ccccc13)C(=C1CCCC1)CC2 | x | x | x | 2268 | -1 | -4 | x
CCOc1ccc(C(=O)OCC(=O)N2CCCC2)cc1 | 0.2 | -6 | 10 | 3729 | -3 | -26 | 7
OCCN1CCOCCOc2ccccc2OCCOCC1 | 1.8 | 1 | -8 | 2903 | -10 | -14 | 1
CCOC(=O)[C@@H]1[C@H]2COc3ccccc3[C@@H]2N2C(=O)N(c3cccc(C)c3)C(=O)[C@@]12C | -14 | 10 | 1 | 3530 | x | -1 | -2
Cc1ccc(S(=O)(=O)N2CCN(C(=O)COC(=O)CC(C)c3ccccc3)CC2)c(C)c1 (configuration not stated) | 3.1 | 3 | -5 | 5454 | x | -15 | 1
Cc1ccc(C(=O)Nc2cccnc2)cc1Cl | 1.8 | 7 | -8 | 3361 | 2 | -55 | 7
CCCNC(=O)C1(CC2CC(c3ccccc3)=NO2)CCN(C(=O)Cc2ccc(F)cc2)CC1 (configuration not stated) | 1.5 | 2 | 12 | 3436 | 10 | -10 | 0
OC(C#CCN1CCCC1)c1ccccc1 (configuration not stated) | 3.1 | -2 | 4 | 9643 | 4 | -6 | 2
CC(=O)c1ccc(N2CCN(C(=O)c3ccc(Br)cc3)CC2)c(F)c1 | -1.7 | x | x | 4234 | -5 | -22 | 11
O=C(O)c1ccc2c(=O)n3c(nc2c1)/C(=C/c1ccc(Cl)cc1Cl)CC3 | 12 | 13 | 4 | 3175 | -1 | 0 | -1
CC(CC(=O)Nc1ccc(Cl)c(C(F)(F)F)c1)=NNC(=O)c1cc2ccccc2cc1O | 44 | 6 | 4 | x | x | x | 44
COC(=O)c1sc2ccccc2c1NC(=O)c1ccc(S(=O)(=O)N2CC(C)CC(C)C2)cc1 (configuration not stated) | 10 | 9 | -3 | 2343 | -14 | -4 | -1
CCN(C(=O)COC(=O)c1cc2ccccc2cc1OC)c1c(N)n(Cc2ccccc2)c(=O)[nH]c1=O | 5.1 | 4 | 3 | 2660 | x | -15 | 12
Cn1cc(CN2CCCC(C(=O)Nc3cccc(-c4cc5ccccc5[nH]4)c3)C2)cn1 (configuration not stated) | x | x | x | 4679 | 2 | 2 | x

Entries of single compounds as entered above.
OCCN1CCOCCOc2ccccc2OCCOCC1 across the screens: RN4220 kill: 1.8; Mtb hypoxia inh: 1; Mtb hypoxia inh growth: -8; Bead autofluor: 2903; BJeLR viability: -10; PrP UTR inh: -14; ugtP null kill: 1
CC(=O)c1ccc(N2CCN(C(=O)c3ccc(Br)cc3)CC2)c(F)c1 across the screens: RN4220 kill: -1.7; Mtb hypoxia inh: x; Mtb hypoxia inh growth: x; Bead autofluor: 4234; BJeLR viability: -5; PrP UTR inh: -22; ugtP null kill: 11
CCOC(=O)[C@@H]1[C@H]2COc3ccccc3[C@@H]2N2C(=O)N(c3cccc(C)c3)C(=O)[C@@]12C across the screens: RN4220 kill: -14; Mtb hypoxia inh: 10; Mtb hypoxia inh growth: 1; Bead autofluor: 3530; BJeLR viability: x; PrP UTR inh: -1; ugtP null kill: -2
